Bioassay records (PubChem)
VDR inh – inhibitors of human vitamin D receptor | Potency, µM, inactives show max response, negative = inhibition, actives largely listed as inhibitors | AID 504847 | 0.93% of 400,000 active | VDR-SRC2-3 peptide fluorescence polarization, 2 h | P11473; active means well fitted inhibition curve with a large enough effect; inconclusive means small, poorly fitted or top-dose-only effect, or another doubt; inactive means no such curve, though single readings can be large or run the other way; further: series mostly up to about 120 µM
Target sequence (P11473 whole entry, looked up): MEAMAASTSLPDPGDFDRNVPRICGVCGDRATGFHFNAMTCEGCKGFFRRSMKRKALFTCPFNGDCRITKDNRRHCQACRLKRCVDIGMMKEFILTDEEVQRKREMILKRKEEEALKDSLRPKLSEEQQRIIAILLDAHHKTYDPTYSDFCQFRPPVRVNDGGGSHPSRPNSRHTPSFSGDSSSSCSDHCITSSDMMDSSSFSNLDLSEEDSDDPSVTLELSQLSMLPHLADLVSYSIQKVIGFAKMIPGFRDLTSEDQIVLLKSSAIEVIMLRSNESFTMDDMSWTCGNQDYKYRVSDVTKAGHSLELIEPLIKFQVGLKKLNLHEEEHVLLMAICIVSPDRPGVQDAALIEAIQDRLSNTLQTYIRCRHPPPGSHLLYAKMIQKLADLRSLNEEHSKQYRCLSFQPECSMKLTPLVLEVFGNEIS
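Fluorescence polarization assay of small-molecule disruption of VDR binding to coregulator peptide SRC2-3. Compounds and controls pin-transferred, then read after 2 h incubation at ambient room temperature.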
* = called active by the depositor; ? = inconclusive; & = joins results of further samples. On the % scale 0 is the no-effect control and ±100 the full control effect; potency means the concentration at half of the fitted maximal effect. This is a subset; the hit share may differ from the screen's.

> COc1ccc(CCCC(=O)Nc2ccc(F)cc2)cc1
- VDR inh: -19%
> Cc1ccc(-n2ccnc(SCC(=O)NC3CCCCC3)c2=O)cc1F
- VDR inh: ?
> CCOc1ccc(-c2nc(CNC(=O)Nc3ccccc3)c(C)o2)cc1
- VDR inh: 6%
> Cc1cccc(NS(=O)(=O)c2cccc(C(=O)N3CCCC3)c2)c1
- VDR inh: 13%
> Cc1ccc(Cn2cc(CCC(=O)NCC(C)c3ccccc3)c3ccccc32)cc1 (stereo not drawn)
- VDR inh: 6%
> Cc1ccc(CS(=O)(=O)c2cn(CC(=O)Nc3ccon3)c3ccccc23)cc1
- VDR inh: -10%
> COc1ccccc1NC(=O)Nc1ccc(F)c(F)c1
- VDR inh: -14%
> CN(C)CCN(C(=O)C1=COCCO1)c1nc2ccc(Cl)cc2s1
- VDR inh: 11%
> O=[N+]([O-])c1ccc(CCNc2cccc3ccccc23)c([N+](=O)[O-])c1
- VDR inh: -18%
> N#Cc1ccc(CSc2nnc(NC(=O)c3ccc4ncsc4c3)s2)cc1
- VDR inh: -9%

> CC(C)=CC(=O)Nc1nnc(-c2ccccc2C)s1
- VDR inh: -25%
> CCN(C(=O)Cn1cnc2sc(C)c(S(=O)(=O)N3CCN(c4ncccn4)CC3)c2c1=O)c1ccccc1F
- VDR inh: -27%
> CCN(CC)S(=O)(=O)c1ccc(NC(=O)Nc2cccc(C(F)(F)F)c2)cc1
- VDR inh: 7%
> O=C(NC(=S)N1CCOCC1)c1cn(-c2ccccc2)nc1-c1ccc(F)cc1
- VDR inh: 3%
> O=C(c1cccs1)C1C(c2ccc(Br)cc2)NC(=S)NC1(O)C(F)(F)F (stereo not drawn)
- VDR inh: -18%
> O=[N+]([O-])c1c(NCc2ccccc2)cc(N2CCc3ccccc3C2)c2nonc12
- VDR inh: -12%
> CC(C)COc1ccc(CSCCNC(=S)Nc2ccccc2)cc1
- VDR inh: 0%
> O=C(Cc1cccs1)N(CC1CCCO1)C1(C(=O)NC2CCCCC2)CCCCC1 (stereo not drawn)
- VDR inh: -6%
> CC(C)(C#CCN1CCCC1)OCCC#N
- VDR inh: 16%
> CCOC(=O)c1sc2nc(C)c3c(c2c1N)CC(C)(C)OC3
- VDR inh: -7%

> O=c1[nH]c(C2CCN(S(=O)(=O)/C=C/c3ccccc3)CC2)nc2c1nnn2Cc1ccc(F)cc1
- VDR inh: 13%
> COc1ccccc1-c1ccc2ncnc(NCc3ccccc3)c2c1
- VDR inh: ?
> O=C(NC1CCSC1)c1cccc(Cl)c1 (stereo not drawn)
- VDR inh: -6%
> CN(CC(=O)Nc1ccccc1Cl)C(=O)Cn1cc(C(F)(F)F)cc(Cl)c1=O
- VDR inh: -7%
> Cc1cccc(OCCOC(=O)Nc2ccccc2)c1
- VDR inh: 8%
> O=C(NCc1ccccc1)c1ccc(CN(c2ccccn2)S(=O)(=O)c2ccccc2)cc1
- VDR inh: -8%
> O=C(Nc1ccccc1C(=O)NCCc1ccccc1)c1cnccn1
- VDR inh: -10%
> CCOC(=O)C1(CCOC)CCN(C(C)CCc2ccc(OC)cc2)CC1 (stereo not drawn)
- VDR inh: -8%
> COc1cccc2c(SCC(=O)N/N=C/c3ccc(O)c(O)c3)cc(C)nc12
- VDR inh: -7%
> COc1cccc(CN(C)C(=S)Nc2cccc(C)c2)c1
- VDR inh: -6%

> CCOC(=O)c1sc2ncn(CC(=O)Nc3cc(C)cc(C)c3)c(=O)c2c1C
- VDR inh: -3%
> c1ccc(CSc2nnc3ccc(-c4ccncc4)nn23)cc1
- VDR inh: 3%
> CCCN(CCC)CCCNC(=O)Cn1cnc2sc(C)c(S(=O)(=O)N3CCC(C)CC3)c2c1=O
- VDR inh: 9%&-3%
> O=C(NCc1ccncc1)c1ccc(Cn2cc(C(F)(F)F)ccc2=O)cc1
- VDR inh: -7%
> Brc1ccc(-c2nc(-c3ccncc3)no2)cc1
- VDR inh: -26%
> COc1ccccc1C(=O)COC(=O)Cn1c(C)csc1=O
- VDR inh: -14%
> O=C(CSc1nnc2c(n1)[nH]c1ccc(S(=O)(=O)N3CCOCC3)cc12)Nc1ccccc1Cl
- VDR inh: -12%
> COc1ccc(-c2nn(-c3ccccc3)cc2/C=C2/SC(=S)N(CCC(=O)O)C2=O)cc1
- VDR inh: ?
> CC(C)(C)NC(=O)CN(Cc1ccc2c(c1)OCO2)C(=O)CCC(=O)Nc1nccs1
- VDR inh: 19%
> CN(CC(=O)Nc1ccccc1-c1ccccc1)Cc1ccccc1Cl
- VDR inh: 6%

> Cc1cccc(C)c1NC(=O)c1sc(Cl)nc1C
- VDR inh: -14%
> COc1ccc(OC)c(NC(=O)COC(=O)C2CCCCC2)c1
- VDR inh: -10%
> Cc1noc(NC(=O)c2ccccc2Cl)c1C#N
- VDR inh: -10%
> CS(=O)(=O)N1CCC(C(=O)Nc2ccc(Cl)c(C(F)(F)F)c2)CC1
- VDR inh: -7%
> COc1ccc(C(=O)N(Cc2ccccc2)c2ccc(C)cc2)cc1S(=O)(=O)N1CCOCC1
- VDR inh: 15%
> COc1ccc2[nH]c(-c3cccc(F)c3)cc(=O)c2c1
- VDR inh: -11%&7%
> Cc1nnc2c(NCCC(C)C)nc3ccccc3n12
- VDR inh: -11%
> O=c1c(-c2ccccc2)nc(-c2ccccc2)cn1O
- VDR inh: -1%
> Cc1nc2nc(NC(=O)c3ccco3)[nH]n2c(=O)c1C
- VDR inh: 0%
> O=C(CCN1CCN(c2ccc(Cl)cc2)CC1)Nc1ccccc1F
- VDR inh: 4%

> CC(C)(C)NC[C@H](O)COc1cccc2c1CCCC2=O
- VDR inh: ?
> COc1ccc(C(=O)c2cc([N+](=O)[O-])ccc2N2CCN(C)CC2)cc1
- VDR inh: 18%
> CCn1cc(C(=O)OCC(=O)OC2CC(C)CCC2C(C)C)c(=O)c2ccc(C)nc21 (stereo not drawn)
- VDR inh: -19%
> COC(=O)c1ccc(/C=C2/C(=O)Oc3ccccc32)cc1
- VDR inh: -1%
> CN(Cc1ccccc1)C(=O)CSc1c2c(nc3ccc(Cl)cc13)CCCC2
- VDR inh: ?
> Cc1ccc(S(=O)(=O)N(C)C)cc1NC(=S)NCCCn1ccnc1
- VDR inh: 7%
> Cc1ccc(NS(=O)(=O)c2cccc(C(=O)O)c2)c(C)c1
- VDR inh: 14%
> O=C1[C@H](Cc2ccccc2)NCC=CC[C@@H](c2ccco2)N1Cc1ccccc1
- VDR inh: -19%
> Cc1c(-c2cc(C(=O)O)no2)cnn1C
- VDR inh: ?
> CC(=O)c1ccc(N2CCN(C(=O)c3cc(C)on3)CC2)cc1
- VDR inh: 12%

> O=C(CSc1nnc(CNc2ccc(F)cc2)o1)OC1CCCCC1
- VDR inh: ?
> CCC(=O)C1=C(c2ccc(F)cc2)N(C(=O)CC)n2c(nnc2C2CCCCC2)S1
- VDR inh: -2%
> O=C(N/N=C/c1ccc(O)c2ncccc12)c1cccc(Br)c1
- VDR inh: 1%
> CC1=C(C(=O)OCc2ccccc2)C(c2ccccc2)NC(=O)N1 (stereo not drawn)
- VDR inh: -21%
> Cc1cc(N2CCN(c3ccccc3)CC2)n2c(n1)nc1ccccc12
- VDR inh: -17%
> NC(=O)CC(NC(=O)Cc1cccc2ccccc12)c1ccc(N2CCN(c3ccc(F)cc3)CC2)c([N+](=O)[O-])c1 (stereo not drawn)
- VDR inh: -5%
> O=C(CCN1C(=O)c2ccccc2S1(=O)=O)N1CCN(c2cccc(Cl)c2)CC1
- VDR inh: 10%
> Nn1c(SCC(=O)Nc2ccccc2F)nnc1-c1cccs1
- VDR inh: 0%
> Cc1ccccc1C(=O)NC(CC(C)C)C(=O)Nc1ccc(F)c([N+](=O)[O-])c1 (stereo not drawn)
- VDR inh: -7%
> COc1ccc(N2CCN(C(=O)CSc3ncn[nH]3)CC2)cc1
- VDR inh: 10%

> COCc1nnc(NC(=O)CS(=O)(=O)c2ccc(C)cc2)s1
- VDR inh: 10%
> S=C(c1ccc(-c2cccc(Cl)c2)o1)N1CCCCC1
- VDR inh: 4%
> Cc1cccc(-n2nnc(C(=O)NCc3ccc4c(c3)OCO4)c2N)c1
- VDR inh: -14%
> COc1cccc(CN2CCN(Cc3ccc4cccc(F)c4n3)CC2CCO)c1 (stereo not drawn)
- VDR inh: -8%
> O=C(CSc1ccc(-c2ccc(F)cc2)nn1)N1CCCCC1
- VDR inh: 2%
> Cc1cc(NC(=O)Cn2nc(C(F)(F)F)c3c2CCCC3)no1
- VDR inh: 17%
> COc1ccccc1NC(=O)C(O)C(O)C(=O)Nc1ccccc1OC (stereo not drawn)
- VDR inh: -17%
> CCc1nn2c(NCCOC)cc(C)nc2c1-c1ccc(F)cc1
- VDR inh: -22%
> COc1ccccc1OCCNC(=O)CNC(=O)c1ccc(Cl)c(Cl)c1
- VDR inh: 1%
> COc1ccc(C2C=C(c3ccccc3)Nc3nc(NC(=O)/C=C/c4ccc(Cl)cc4)nn32)cc1 (stereo not drawn)
- VDR inh: 11%

> CCC/C=N/NC(=O)c1cc(Br)ccc1O
- VDR inh: -4%
> O=C(O)C(O)(c1ccccc1)C(O)c1ccccc1 (stereo not drawn)
- VDR inh: 1%
> Cc1cc2ccccc2c(=O)n1CC(=O)NCC(=O)N1CCN(c2ccccc2F)CC1
- VDR inh: 6%
> O=C(NCc1ccccn1)C(=O)Nc1cc2c3c(c1)CC(=O)N3CCC2
- VDR inh: 2%
> c1ccc(-c2noc(-c3ccc4ccccc4c3)n2)cc1
- VDR inh: -4%
> COc1cc(C(=O)NCc2nnc(SCC(=O)Nc3cccc(C(F)(F)F)c3)o2)cc(OC)c1OC
- VDR inh: -10%
> CC1CCCN(C(=O)c2cc3c(=O)n(C)c4ccccc4c3s2)C1 (stereo not drawn)
- VDR inh: -6%
> O=C(CCNS(=O)(=O)c1cccs1)NCc1ccco1
- VDR inh: 11%
> Nc1c(N(Cc2ccco2)C(=O)c2ccccc2F)c(=O)[nH]c(=O)n1Cc1ccccc1
- VDR inh: -1%
> Cc1ccccc1NC(=O)C(=O)NCCCN1CCOCC1
- VDR inh: -10%

> Cc1ccc(C(=O)C(OC(=O)c2cnccn2)c2ccccc2)cc1 (stereo not drawn)
- VDR inh: -8%
> O=C(Nc1ccc2c(c1)CCC2)c1cnn2c1NC(=C1CC1)C=C2C(F)F
- VDR inh: -6%
> CC(c1ccccc1)N(C)C(=O)CN1CCN(S(=O)(=O)c2ccc3c(c2)OCCCO3)CC1 (stereo not drawn)
- VDR inh: -12%
> COc1ccccc1Nc1nc(-c2cccs2)cs1
- VDR inh: 27%
> C=CCNC(=O)C1CC(=O)N(c2ccc(OCC(=O)Nc3cccc(OC)c3)cc2)C1 (stereo not drawn)
- VDR inh: 11%
> COc1ccc(C)cc1NC(=O)C(Sc1nnc(-c2ccncc2)n1-c1ccc(Cl)cc1)c1ccccc1 (stereo not drawn)
- VDR inh: -2%
> CCOC(=O)c1sc(=S)n(-c2cc(OC)ccc2OC)c1N
- VDR inh: 20µM*
> CCN1CCN(C(c2ccccc2)c2sc3nc(-c4ccco4)nn3c2O)CC1 (stereo not drawn)
- VDR inh: 10%
> CCN(CCCNC(=O)c1cc2c(=O)n(CC)c3ccccc3c2s1)c1ccccc1
- VDR inh: -20%
> O=C(CCCc1ccccc1)Nc1ccnn1C1CCN(Cc2ccc(CO)o2)CC1
- VDR inh: 4%

> CCOC(=O)c1ccc(N2C(=O)CC(N3CCC(C(N)=O)(N4CCCCC4)CC3)C2=O)cc1 (stereo not drawn)
- VDR inh: 10%
> CCc1ccc(NCCC(=O)c2ccc(Cl)cc2)cc1
- VDR inh: -11%
> O=C1NC(=O)C2(CCCCCCCCCCC2)N1
- VDR inh: -2%
> c1ccc(CNc2nc(-c3ccoc3)nc3ccccc23)cc1
- VDR inh: 32µM*
> COc1cc(OC)cc(C(=O)Nc2c(C(=O)Nc3ccc(F)cc3)oc3ccccc23)c1
- VDR inh: -17%
> O=C(Cn1c(=O)n(Cc2ccc(C(=O)NCc3ccccc3Cl)cc2)c(=O)c2ccccc21)Nc1ccc(F)c(Cl)c1
- VDR inh: -6%
> Cc1cc[n+](CC(=O)Nc2cccc(C)c2)cc1
- VDR inh: -8%
> Cc1cc(C)c(S(=O)(=O)NCC(c2ccc(N(C)C)cc2)N2CCc3ccccc32)c(C)c1 (stereo not drawn)
- VDR inh: -8%
> Cc1cc(C)cc(Nc2ncc3c(n2)CC(c2ccco2)CC3=O)c1 (stereo not drawn)
- VDR inh: -5%
> COc1cccc(CC2(CO)CCCN(CC3=Cc4cc(OC)ccc4OC3)C2)c1 (stereo not drawn)
- VDR inh: 5%

> Cc1nnc(SCC(=O)Nc2ccccc2NC(=O)CSc2nnc(C)s2)s1
- VDR inh: 2%
> CN(C)CCOc1cccc(Br)c1
- VDR inh: -10%
> COc1ccc(Cl)cc1NS(=O)(=O)c1cccc2cccnc12
- VDR inh: -1%
> Cc1cccc(NC(=O)CCN2CCCC(C)C2)c1 (stereo not drawn)
- VDR inh: -7%
> Cc1ccc(C2(CCNC(C)c3cccs3)CCOC(C(C)C)C2)cc1 (stereo not drawn)
- VDR inh: 8%
> C=CCn1c(=O)[nH]c2cc(C(=O)N3CC=C(c4ccccc4)CC3)ccc2c1=O
- VDR inh: -4%
> COc1ccc(-c2cc(=O)oc3cc(OCC(=O)NCCCn4ccnc4)ccc23)cc1
- VDR inh: -11%
> O=C(CSc1nnc(CNC(=O)c2ccccc2F)n1-c1ccccc1)Nc1ccccc1F
- VDR inh: -6%
> COCCCNC(=O)c1cc2n(n1)CCCN(Cc1ccc(C)cc1)C2=O
- VDR inh: -3%
> c1ccc(C(c2nnnn2Cc2cccs2)N2CCN(C3CCCC3)CC2)cc1 (stereo not drawn)
- VDR inh: -2%
> CN(C)c1ccc(NC(=O)COC(=O)c2ccc3c(c2)OCO3)cc1
- VDR inh: -10%
